gsp ag – activates gsp, the McCune-Albright syndrome mutation. gsp mutant cells, cAMP HTRF, 30 min; control for the full effect not named in the record. Potency, µM (top dose mostly 76.9 µM), for inactives: at the top dose activation (cAMP increase), most hits filed as activators. actives 0.13% (n = 340,000); active = well fitted activation curve with a large enough effect; inconclusive = small, poorly fitted or top-dose-only effect, or another doubt; inactive = no such curve, though single readings can be large or run the other way; cell line not stated here;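 also: phosphodiesterase inhibitor Ro 20-1724 added with compounds to block cAMP breakdown; potency is read from the fitted curve at half-maximal effect; nearly all actives have a fitted effect of over 60% in size; about a fifth of the inactives were tested at one dose only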
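Cells stably selected in G418 were plated at 2000/well, grown 16-24 hr, then given compounds in DMSO with the PDE inhibitor […] (300 uM solution added) for 30 min at 37C; cAMP was read by HTRF.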
ClpP mod – qHTS Assay for Activators of ClpP. ATP-dependent Clp protease proteolytic subunit (Bacillus subtilis (strain 168)), P80244. purified B. subtilis ClpP, FRET peptide cleavage, 20 min. Potency, µM (series often up to 57.5 µM), without a hit: at the top dose activity change, negative = active. actives 1.9% (n = 340,000); active = well fitted falling curve with a large enough effect; inconclusive = small, poorly fitted or top-dose-only effect; inactive = no such curve, though single readings can be large or run the other way; also: potency is read from the fitted curve at half-maximal effect; the source files actives as falling curves though it sought activators and does not explain the sign; nearly all actives have a fitted effect of over 65% in size; many hits overshoot -100%
Target sequence (P80244 whole entry, looked up): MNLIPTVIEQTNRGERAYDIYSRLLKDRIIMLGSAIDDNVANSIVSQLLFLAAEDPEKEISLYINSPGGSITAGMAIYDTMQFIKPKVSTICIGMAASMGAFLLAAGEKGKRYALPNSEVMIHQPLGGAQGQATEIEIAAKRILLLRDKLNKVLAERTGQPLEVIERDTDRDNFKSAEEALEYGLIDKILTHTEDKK
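FRET quenching reversal measured ClpP activation: 10 microg/mL B. subtilis ClpP at pH 8 with the FRET-FV decapeptide, read at 430 nm after 320 nm excitation. The 20-min minus 0-min signal was scaled between DMSO/no-enzyme wells and ADEP (5.8 microM final).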
Menin MLL FP FL – inhibitors of human menin-MLL interaction, wild-type MLL peptide; 290,000 tested, under 10 active; AID 1766; Fluorescence polarization, fluorescein-MLL peptide displacement from menin; FP activity change, % at 61.4 µM; inconclusive = falling polarisation curve, or a change in total fluorescence; inactive = total fluorescence flat and polarisation flat or rising; no compound was filed as active; the % refers to the polarisation; negative = inhibition;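 also: % of control where 0% means no effect; inhibitors lower the polarisation; unlabelled MLL peptide was the positive control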
Sfp PPTase inh – inhibitors of Bacillus subtilis Sfp phosphopantetheinyl transferase; Biochemical Sfp PPTase activity, qHTS; Potency, µM, for inactives: max response, negative = inhibition, usual class: inhibitors; actives 3.5% (n = 310,000); AID 1490; active = well fitted inhibition curve with a large enough effect; inconclusive = small, poorly fitted or top-dose-only effect, or another doubt; inactive = no such curve, though single readings can be large or run the other way;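 also: the enzyme is Sfp with the accession as filed and its product quenches rhodamine fluorescence; potency is read from the fitted curve at half-maximal effect; 0% = enzyme reaction without inhibitor and -100% = no enzyme wells; top concentration of the series not given in the record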
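With Hepes-Na pH 7.6 buffer containing 10 mM MgCl2, Sfp (15 nM) modified BHQ-2-YbbR (12.5 uM) using rhodamine-CoA (5 uM). Two reads 30 minutes apart at 525/598 nm yielded each well's rate.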
PINK1 expr mod – changes PINK1 expression. actives 0.2% (n = 410,000). AID 624263. Potency, µM (top dose mostly 76.6 µM), for the others: at the top dose activation (PINK1 increase), most hits filed as activators. PINK1 immunofluorescence, high-content cytometry, 24 h; active = well fitted activation curve with a large enough effect; inconclusive = small, poorly fitted or top-dose-only effect; inactive = flat fitted curve, though single readings scatter; cell line not stated here;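 also: potency is read from the fitted curve at half-maximal effect; % of control where 0% means no effect; nearly all actives have a fitted effect of over 65% in size; a mitochondrial uncoupler was the plate control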
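Measures PINK1 amount and localization on or inside mitochondria by immunofluorescence. Stable cells get compounds at 5 concentrations for 24 hours before fixation and staining; CCCP controls included.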
D2 ag – human D2 receptor agonism in beta-arrestin assay | P14416 | DiscoveRx PathHunter D2 beta-arrestin, luminescence, 90 min; 100% = 57 uM dopamine signal | activation, % (concentration not given with the values) | actives 0.084% (n = 360,000); in the data active = activation above about 40%; inconclusive = about 15% to 40%; inactive = below about 15%; also: compound concentration not given in the record; the text of the record calls up to 30% inactive
Target sequence (P14416 whole entry, looked up): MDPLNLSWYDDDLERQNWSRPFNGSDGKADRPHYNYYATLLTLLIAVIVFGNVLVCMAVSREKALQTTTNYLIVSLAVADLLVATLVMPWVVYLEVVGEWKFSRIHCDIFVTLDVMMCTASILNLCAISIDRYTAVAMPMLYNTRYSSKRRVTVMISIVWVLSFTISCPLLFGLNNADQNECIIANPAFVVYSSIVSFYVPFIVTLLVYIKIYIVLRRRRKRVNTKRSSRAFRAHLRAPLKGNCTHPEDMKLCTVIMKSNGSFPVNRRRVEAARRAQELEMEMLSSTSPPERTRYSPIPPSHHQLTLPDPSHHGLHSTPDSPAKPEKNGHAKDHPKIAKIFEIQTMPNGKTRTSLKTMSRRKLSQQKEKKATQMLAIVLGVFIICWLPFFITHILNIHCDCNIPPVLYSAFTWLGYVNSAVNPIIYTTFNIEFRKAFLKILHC
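DiscoveRx PathHunter D2 beta-arrestin cells (2,100/well) attached overnight, then compound-stimulated 90 min at 37 C in HBSS/10 mM HEPES/0.1% Tween-20 buffer; beta-galactosidase complementation read by luminescence after 1 h at ambient temperature. Dopamine 57 uM final (EC100) as control.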
gsp antag – antagonizes gsp, the McCune-Albright syndrome mutation; gsp-mutant cells, cAMP HTRF, 30 min; control for the full effect not named in the record; Potency, µM (titrated, usually from 76.9 µM), for inactives: at the top dose activity change, negative = inhibition, usual class: inhibitors; actives 0.4% (n = 340,000); AID 624288; active = falling curve of any shape with a large fitted effect; inconclusive = falling curve, mostly with a smaller effect; inactive = flat or rising curve; cell line not stated here;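 also: intracellular cAMP measured with PDE inhibitor Ro 20-1724 present during compound exposure; potency is read from the fitted curve at half-maximal effect; % is scaled to controls: 0 for no effect and ±100 for the full control effect; nearly all actives have a fitted effect of over 65% in size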
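Cells in G418 medium, seeded 16-24 h, 37C; buffer exchange to DPBS + 1 mM CaCl2, 0.5 mM MgCl2, 0.05% BSA; cpds in DMSO + […] (300 uM stock), 30 min 37C; HTRF cAMP detection.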
Active calls of the source: *; ? = inconclusive; . = not tested or not shown; [ ] = remark or other dose. Compounds as they come (roughly 5.1% active in at least one column).

compound,PINK1 expr mod,D2 ag,Sfp PPTase inh,gsp antag,Menin MLL FP FL,ClpP mod,gsp ag
O=C(c1ccco1)N1CCN(C(=O)C2CCCN(S(=O)(=O)c3cccc4nsnc34)C2)CC1 (configuration not stated),3.3%[38.3 µM],-1.7,8%,-9%,5.2,-0.1%,20%
COc1ccc(C/C(N)=N/OC(=O)c2cccs2)cc1,1.5%,6.5,-7%,9%,-2.0,0.9%,14%
O=C(NCC1CCCO1)c1cc2cc(F)ccc2[nH]1 (configuration not stated),2.7%,-6.8,8%,11%,0.5,3.5%,?
Cc1cc(C)n(S(=O)(=O)c2cc(C(=O)O)c(Cl)cc2Cl)n1,.,0.0,12%,-4%,-2.0,-0.2%,5%
C[C@H](CO)N1C[C@H](C)[C@@H](CN(C)CC2CC2)OCc2cnnn2CCCC1=O,1.2%,-1.8,.,.,.,-3.0%,-49%
O=C(N/C(=C/C=C/c1ccccc1)C(=O)N1CCOCC1)c1ccccc1Cl,-0.9%,-0.4,7%,8%,-0.5,-3.3%,-18%
COc1ccc(NC(=O)CCn2cc(C)c3ccccc32)cc1,2.3%,2.3,2%,-6%,2.7,0.6%,-5%[15.4 µM]
CCC(CC)=NNC(=O)c1ccccc1OCc1ccc(F)cc1,0.9%,-1.8,15%,1%,2.8,?,9%[15.4 µM]
Cc1ccc(S(=O)(=O)Oc2ccc(/C=C3/N=C(c4ccccc4)OC3=O)cc2)cc1,9.9%,-4.2,?,-19%,4.1,-14%,?
C#CCOCCOCCOCCNc1nc(N2CCOCC2)nc(N2CCN(C(=O)CCCCCCCCCCNC(=O)[C@@H]([C@H](C)O)n3cc(C)nn3)CC2)n1,0.2%,-0.8,.,-10%,.,-3.4%,.
Cc1ccc(C(C)C)c(OCC(O)CN2CCOCC2)c1 (configuration not stated),1.8%[38.3 µM],-3.1,-13%,1%,-2.4,1.2%,-4%
COc1ccccc1-n1nnnc1SCC(=O)Nc1ccc(C)c(N)c1,-1.5%,-1.1,79µM*,-4%,-0.7,.,9%[15.4 µM]
COc1ccc(C2C(=O)N(C3CCCCC3)CC(=O)N2Cc2ccco2)cc1 (configuration not stated),-1.2%[38.3 µM],-2.7,22µM*,-8%,1.9,0.5%,-25%
Cc1nn2c(N3CCN(C)CC3)cc(C(C)(C)C)nc2c1-c1ccccc1,-1.6%,-4.2,-24%,14%,1.6,.,-17%
CCOC(=O)C1(CC2CC2)CCN(S(=O)(=O)/C=C/c2ccccc2)CC1,-0.1%,1.4,-5%,1%,5.0,0.3%,-45%[inhibitor]
Cc1ccc(CNC(=O)CS(=O)(=O)Cc2nc(-c3ccccc3F)oc2C)cc1,6.2%,-4.3,5%,-1%,-5.9,3.9%,-27%
O=C(NNC(=O)c1ccc([N+](=O)[O-])cc1)c1ccc(Br)cc1,4.1%,-4.4,11%,-1%,1.3,-3.0%,1%[15.4 µM]
CCc1nnc(NC(=O)COc2ccc3c(c2)OCO3)s1,3.2%,2.8,-29%,9%,5.3,.,14%
C[C@@H]1CN([C@H](C)CO)C(=O)CCCn2cc(nn2)CO[C@H]1CN(C)C(=O)C1CCCCC1,0.0%,-5.0,.,.,.,-2.6%,.
O=C(Nc1ccc(F)cc1)C1C2CCC3C(CCC21)C3(Cl)Cl (configuration not stated),6.4%,-3.0,9%,-9%,3.3,.,-1%[15.4 µM]
CC(=O)N1N=C(c2ccc(Cl)cc2)CC1c1ccco1 (configuration not stated),-2.8%,4.4,?,-1%,3.8,.,-1%
Cc1ccc(-c2nc3cnccn3c2Nc2ccc3c(c2)OCO3)o1,-0.5%,5.2,35µM*,-15%,0.8,-3.3%,13%
CC[C@@H](C)[C@H](NC(=O)Cc1c(C)c2cc3c(C)coc3c(C)c2oc1=O)C(=O)O,0.9%,-4.5,1%,-4%,1.2,4.2%,-1%
C=CCNC(=O)NS(=O)(=O)c1ccc(C)cc1,1.5%,-1.6,3%,4%,-1.1,-2.2%,0%
O=c1c2ccccc2nc2n1CC/C2=C/N1CCN(c2cccc(C(F)(F)F)c2)CC1,-1.7%[38.3 µM],0.8,32µM*,-5%,?,-2.4%,-11%
Cc1cc2oc(=O)cc(Cn3ncc(Cl)c(Cl)c3=O)c2cc1Cl,-2.9%,-1.7,-7%,?,7.3,.,5%
Cc1cc(C)n(C(=O)c2ccc(C)c(S(=O)(=O)N3CCCCC3)c2)n1,-6.9%[38.3 µM],-1.0,3%,?,1.6,-1.0%,4%
CCc1ccccc1NC(=O)COc1ccc2c(c1)OCO2,0.3%,4.1,-9%,.,-1.2,.,-2%[15.4 µM]
CCc1ccc(C(C)NC(=O)c2ccc3c(c2)OCO3)cc1 (configuration not stated),0.6%,0.6,-2%,2%,.,-1.4%,8%
COc1ccc2nc(N/C(N)=N/C(=S)Nc3ccccc3)nc(C)c2c1,0.4%,-5.8,18%,-10%,8.3,.,-2%[15.4 µM]
O=C(Nn1c(C2CCCCC2)nc2ccccc2c1=O)c1ccc(Cl)c([N+](=O)[O-])c1,-0.6%,1.4,-8%,-24%,4.7,.,5%[15.4 µM]
CC(C)(C)OC(=O)N1CCC(NC(=O)c2nc[nH]c2C(=O)N2CCN(c3ccccc3)CC2)CC1,-0.3%,1.1,.,-13%,.,0.8%,-10%
Cc1ccc(C)n1NC(=O)c1ccc(O)cc1,3.1%[38.3 µM],2.7,-7%,-3%,2.9,23%,5%
O=C(CSc1nc2ccccc2s1)NCC1CCCO1 (configuration not stated),-1.4%,13,-16%,4%,.,-2.0%,21%
O=C(CSc1ccccc1)Nc1ccc(N2CCN(c3ccccc3)CC2)c(F)c1,0.1%,-3.1,-1%,-2%[15.4 µM],3.9,-1.9%,-35%[inhibitor]
CCOC(=O)N1CCN(C(=O)CSCC(=O)Nc2nc(-c3ccccc3)cs2)CC1,-0.6%[38.3 µM],2.3,6%,?,3.4,1.9%,-7%
CN(C)c1ccc(C(=O)OCC(=O)c2cccs2)cc1,10%,1.8,26%,3%,6.4,0.3%,?
Cc1nn(C(C)C(=O)NCc2ccccc2)c(C)c1[N+](=O)[O-] (configuration not stated),-0.1%[38.3 µM],-1.7,0%,9%,-1.7,-0.2%,-1%
CCCOC1CCCN(C(=O)CCCn2nnnc2CN2CCOCC2)C1 (configuration not stated),2.5%,-4.6,11%,13%,-1.0,0.9%,?
CSCC[C@H](N)C(=O)NC[C@H]1O[C@@H](n2cnc3c(N)ncnc32)[C@H](O)[C@@H]1O,2.5%,-3.8,.,1%,.,-1.2%,.
Cc1cccc(C)c1NC(=O)CNC(=O)Cc1ccccc1[N+](=O)[O-],-0.1%,2.9,-4%,11%,-1.1,.,12%
N#Cc1ccccc1Cn1c(=O)n(-c2ccc(CC(=O)NCc3ccco3)cc2)c(=O)c2sccc21,2.0%,-3.8,-2%,-2%,1.6,-1.1%,5%
CCOC(=O)C1CCN(C(=O)c2sccc2Cl)CC1,-0.4%,0.9,-1%,13%,0.9,-0.6%,-4%[15.4 µM]
CSCC[C@H](NC(=O)CCn1nnc2ccccc2c1=O)C(=O)O,-0.8%[38.3 µM],-2.0,9%,10%,1.4,0.1%,?
Cc1nn(CC(=O)NC2CC2)c(C)c1S(=O)(=O)N(C)C,-0.2%,-3.1,.,.,.,-2.7%,-40%[inhibitor]
CC(=O)c1cnc2cc(-c3ccc(Cl)cc3)nn2c1C,-0.2%,-1.7,4%,-3%,3.4,-5.6%,8%
CCOC(=O)c1ccc(CSc2ncn[nH]2)o1,3.7%[38.3 µM],-1.9,-11%,10%,0.0,-5.8%,10%
Cc1cc(C)n2nc(SC(C)C(=O)NC3CCCCC3C)nc2n1 (configuration not stated),-0.1%,-4.3,.,4%,.,?,-18%[15.4 µM]
CC(C)N(C(=O)c1ccccc1-c1ccccc1)C(C)C,-1.5%,1.3,0%,-4%,2.1,0.2%,0%
CCC(Oc1ccccc1OC)C(=O)Nc1ccc2c(c1)OCCO2 (configuration not stated),0.4%,1.1,-3%,-3%,.,1.2%,19%
CCN(CC(=O)NCc1ccc(Cl)cc1)S(=O)(=O)c1ccc(NC(C)=O)cc1,-1.5%,0.9,16%,-2%,-0.6,-1.7%,12%
Cc1ccccc1N1CCN(C(=O)C2CCCCC2)CC1,3.1%,0.6,-8%,-2%,1.2,-5.3%,-11%
Cc1cc(=O)oc2c1ccc1oc(/C(=N/O)c3ccccc3)c(C)c12,1.3%,-3.7,-13%,7%,5.9,?,2%
O=C(Nc1cc2c3c(c1)CC(=O)N3CCC2)c1ccccc1F,3.0%,-3.3,.,-6%,.,0.9%,-2%[15.4 µM]

Sorted by the number under PINK1 expr mod (highest first): 3 of the compounds above.
molecule	PINK1 expr mod
N#Cc1ccccc1Cn1c(=O)n(-c2ccc(CC(=O)NCc3ccco3)cc2)c(=O)c2sccc21	2.0%
Cc1cc(=O)oc2c1ccc1oc(/C(=N/O)c3ccccc3)c(C)c12	1.3%
Cc1nn(CC(=O)NC2CC2)c(C)c1S(=O)(=O)N(C)C	-0.2%
